Bioassay records deposited in PubChem by ICCB-Longwood Screening Facility, Harvard Medical School.
GIV Gai3 FP: inhibitors of GIV peptide binding to Galpha-i3, primary screen, biochemical, fluorescence polarization, FITC-GIV GBA peptide, rat Galphai3; AID 1224905, 2016; 90 min; active compounds read low; scaled: aluminum fluoride 0%, vehicle 100%; percent of control (FP), % (test concentration not listed); hit rate 0.42% among 210,000; Guanine nucleotide-binding protein G(i) subunit alpha-3 (Rattus norvegicus), P08753;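 active = replicate mean at 85% of control or lower, very high polarization wells dropped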;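 note: lower values mean more displacement of the GIV peptide from Galpha-i3; wells of about 15 µL received 100 nL stock; the first replicate is given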
Target sequence (P08753 whole entry, looked up): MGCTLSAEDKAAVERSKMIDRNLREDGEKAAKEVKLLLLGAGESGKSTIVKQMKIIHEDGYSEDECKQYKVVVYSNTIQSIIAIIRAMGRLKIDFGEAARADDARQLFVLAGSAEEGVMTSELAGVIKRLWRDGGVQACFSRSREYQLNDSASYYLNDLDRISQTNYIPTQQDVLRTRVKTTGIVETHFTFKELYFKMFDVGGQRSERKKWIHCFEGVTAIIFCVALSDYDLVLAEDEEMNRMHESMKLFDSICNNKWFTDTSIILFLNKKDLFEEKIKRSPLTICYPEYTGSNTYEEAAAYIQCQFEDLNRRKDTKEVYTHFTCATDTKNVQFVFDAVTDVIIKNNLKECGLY
HCMV NEC inh: inhibitors of HCMV UL50-UL53 interaction, biochemical, HTRF. normalized percent inhibition. hit rate 0.15% among 190,000. AID 1918969, 2023. inhibition, % (test concentration not listed);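 active = both replicates at 50% or more, plus weaker picks with an unusually low signal ratio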;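 note: stock transfer was 100 nL into about 20 µL; 0% = negative control wells and 100% = wells with untagged competitor protein; inactives centre near -12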
Sa growth inh: S. aureus growth inhibition at 42 and 30 °C, primary screen, LtaS inhibitor project, RN4220, two temperatures | OD600, 20 h, 42 °C; active compounds read low | relative growth, % (concentration not given with the values) | hit rate 0.53% among 170,000 | AID 720641, 2013;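 active = growth at 42 °C up to 50% and 20 or more points under that at 30 °C, or under 10% at both; inconclusive = no clear call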;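 note: 300 nL library stock went into each well; scaled to the means of positive and negative controls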
Sa growth inh second temp: further read-out of Sa growth inh, marked with its call; relative growth, %; measured here: growth at 30 °C;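 optical density after 20 h as mean of two plates; 100% = untreated growth and lower means inhibition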
* = called active by the depositor; ? = inconclusive; . = not tested or not shown.

cpd	mol	GIV Gai3 FP	HCMV NEC inh
1	CCOC(=O)C(Cc1ccccc1)C(=O)O (stereo not given)	98.2	-14.1
2	COc1cccc(CCNC(=O)c2cnc3sc(N4CCCCCC4)nn3c2=O)c1	96.0	-16.0
3	COc1ccccc1Nc1ncc(C(=O)N2CCN(c3ccc(F)cc3)CC2)c2ccccc12	107.6	-10.3
4	CC1CCC2(CC1)N=C(c1ccccc1)C(=O)N2CC(=O)Nc1ccc(F)c(Cl)c1 (stereo not given)	100.4	-13.7
5	O=C(Cn1cc(S(=O)(=O)Cc2cccc(Cl)c2)c2ccccc21)Nc1ccccc1C(F)(F)F	102.9	.
6	N#CCNC(=O)OCc1ccccc1	102.9	-1.9
7	Cc1cc(Oc2ccccc2)nc(-c2ccc(Br)cc2)n1	.	-14.3
8	COC(=O)c1cc(S(=O)(=O)Nc2cccc(-c3cnco3)c2)oc1C	106.0	-34.0
9	CN1CCN(C(=O)/C=C\C(=O)O)CC1	100.8	3.2
10	N#C/C=C(\N)c1ccc(Oc2ccc(Cl)c(F)c2)cc1	107.4	-20.0
11	Cc1sc2ncnc(N3CCN(Cc4ccccc4)CC3)c2c1-c1ccc(F)cc1	.	10.5
12	Cn1c(SCC(=O)O)nnc1-c1ccc(N)cc1	101.2	-45.5

cpd	Sa growth inh	Sa growth inh second temp
1	106.2	77.5
2	93.7	90.6
3	98.5	93.9
4	104.3	90.5
5	113.0	88.5
6	105.2	95.4
7	88.4	89.7
8	105.1	87.8
9	95.5	110.1
10	.	.
11	90.8	99.0
12	.	.

Next section
cpd	mol	GIV Gai3 FP	HCMV NEC inh
13	CCC1Oc2ccc(Cl)cc2N(CC(=O)NCCc2ccccc2)C1=O (stereo not given)	101.2	.
14	CCN(CC)CCNC(=O)c1cc2c(=O)n(C)c3cc(Cl)ccc3c2s1	98.5	-49.8
15	COc1ccc(C(=O)Nc2ccccc2-c2nc3ccccc3s2)cc1OC	109.9	-34.3
16	CCSc1nn(CC(=O)Nc2ccc(F)cc2F)c(N)c1S(=O)(=O)c1ccc(C)cc1	99.0	-24.0
17	Cc1cc(NC(=O)c2ccco2)cc(-c2nc3ccccc3o2)c1O	100.0	-10.7
18	O=C(O)CCCOc1cccc(Br)c1	.	-6.1
19	Cc1ccsc1/C=C1/C(=O)/C(=C/c2sccc2C)C2CCC1N2C	102.6	-38.4
20	Cc1nc2nc(NC(=O)c3ccc(F)cc3)[nH]n2c(=O)c1Cc1ccccc1	104.5	-12.3
21	c1ccc(CC2CCN(CCCNc3nc4ccccc4n4nnnc34)CC2)cc1	125.8	.
22	CCCn1nc(NC(=O)c2cccc(Cl)c2)c2cc3cc(C)ccc3nc21	101.7	.
23	COc1ccc(NC(=O)c2ccc3c(c2)CCN3S(=O)(=O)c2ccc(C)cc2)cc1Cl	112.0	-5.1
24	O=C(CSc1nc2ccccc2o1)Nc1cccc2ccccc12	103.3	-14.9

cpd	Sa growth inh	Sa growth inh second temp
13	117.0	81.1
14	99.5	91.7
15	102.4	93.8
16	.	.
17	98.0	89.5
18	125.1	93.7
19	91.5	71.9
20	98.5	92.9
21	91.0	91.5
22	95.5	96.3
23	85.2	97.4
24	.	.

(continued)
cpd	mol	GIV Gai3 FP	HCMV NEC inh
25	Cc1ccc(C)c(/C=C/c2onc(C)c2S(=O)(=O)N2CCCC(C(=O)N(C)C3CCCCC3)C2)c1 (stereo not given)	100.3	-20.9
26	CC1=C(C(=O)Nc2cc(C)ccn2)C(c2ccc(Br)cc2)C2=C(CC(C)(C)CC2=O)N1 (stereo not given)	105.9	-12.8
27	CCOc1ccc(-n2c(=O)c3c4c(sc3n(CC(=O)N3CCC(C)CC3)c2=O)CCC4)cc1	103.8	-31.8
28	O=C(NCCc1ccccc1)C1CCCN(c2ncnc3c2sc2cccc(F)c23)C1 (stereo not given)	99.5	.
29	Cc1ccc(S(=O)(=O)c2ccc(N3CCC(C(=O)OCc4ccccc4)CC3)nn2)cc1	102.9	-38.6
30	COc1ccc(-c2nc3ccccc3n2Cc2ccccc2)cc1	105.8	-19.5
31	COc1ccc(N2C(=O)c3ccccc3NC2c2ccc3c(c2)OCO3)cc1 (stereo not given)	102.4	-3.6
32	CCc1cccc(NC(=O)CSc2nnc(Cc3ccccc3)n2N)c1	112.0	-3.3
33	COc1cccc(CNS(=O)(=O)c2ccc3[nH]c4c(c3c2)CCCCC4)c1	102.8	.
34	O=C(C(c1ccccc1)c1ccccc1)N1CCCCC1	100.8	-11.3
35	Cc1ccc(-c2cc(N3CCN(S(=O)(=O)c4ccc(CC(C)C)cc4)CC3)ncn2)cc1	99.4	-31.5
36	CCOc1ccc(CCNC(=O)c2c(C)oc3ncnc(N4CCOCC4)c23)cc1	99.2	.

cpd	Sa growth inh	Sa growth inh second temp
25	.	.
26	.	.
27	.	.
28	115.3	94.4
29	.	.
30	118.5	90.4
31	103.9	99.6
32	96.7	97.4
33	105.7	92.8
34	84.3	112.1
35	.	.
36	100.3	86.5

Continuation:
cpd	mol	GIV Gai3 FP	HCMV NEC inh
37	CN(C)CC[C@H](c1ccc(Cl)cc1)c1ccccn1	.	-11.8
38	O=C(N/N=C/c1ccccc1F)c1ccccc1	95.8	-25.1
39	CCCc1oc(C(=O)O)cc1CN1CCOCC1	97.3	-3.8
40	COc1ccc(OCCn2c(C)nc3cc(C)c(C)cc32)cc1	96.2	-33.2
41	N#CCCN(Cc1cccs1)C(=O)c1cccs1	98.3	-22.3
42	COc1cc2c(=O)n(Cc3ccc(C(=O)NC4CC4)cc3)c(=O)n(C)c2cc1OC	106.9	-11.7
43	Cc1cccc(N)c1-c1c(C)cccc1N	105.2	-7.9
44	CCC1=Nc2cc(C(=O)NCCN(CC)CC)ccc2Sc2ccccc21	104.3	-9.9
45	Cc1ccc(-c2nc(Cn3c(SCc4ccc(F)cc4)nc4cccnc43)c(C)o2)cc1	100.7	.
46	CCc1ccc(Nc2nc(C)c3nc(C)n(-c4ccc(CC)cc4)c3n2)cc1	107.0	-29.7
47	O=C(Nc1cccc(Cl)c1)c1cnc2sc(N3CCCC3)nn2c1=O	102.5	.
48	Cc1ccc2nc(NCC3CCCO3)c(-c3noc(C)n3)cc2c1 (stereo not given)	103.5	-10.2

cpd	Sa growth inh	Sa growth inh second temp
37	92.5	91.7
38	106.0	105.5
39	88.4	76.3
40	105.1	82.1
41	98.3	81.6
42	.	.
43	121.1	95.8
44	116.1	84.0
45	103.7	94.9
46	.	.
47	88.7	89.1
48	.	.

(more compounds)
cpd	mol	GIV Gai3 FP	HCMV NEC inh
49	Cc1cc(C(=O)Nc2cccc(Cl)c2)on1	105.6	.
50	Cn1ccnc1C(=O)c1cc(SCC(=O)Nc2ccc3c(c2)OCO3)nc2ccccc12	.	-32.7
51	CCN(C(=O)CSc1nc2ccccc2n1Cc1cc(C)ccc1C)c1ccccc1	105.0	.
52	CCc1ccc(-n2nc3cc(C)c(NC(=O)c4ccccc4C)cc3n2)cc1	104.5	-14.6
53	COC(=O)c1c(NC(=O)c2csnn2)sc2c1CCCC2	101.3	-17.1
54	COc1ccccc1C(C)N (stereo not given)	98.0	4.8
55	O=C(NC(=S)N1CCc2ccccc21)C1CCCC1	104.6	4.0
56	O=C1N/C(=C/c2ccc(N3CCCC3)cc2)C(=O)N1c1ccccc1	141.4	13.4
57	Cc1cccc(OCCCC(=O)O)c1C	101.9	-4.4
58	Cc1nc2c(=O)oc3ccccc3c2o1	103.9	-2.6
59	CCc1ccc(OCC(=O)Nc2ncn[nH]2)c(Br)c1	105.8	-10.2
60	CCOC(=O)c1sc(-c2ccc(F)cc2)cc1N	.	-8.5

cpd	Sa growth inh	Sa growth inh second temp
49	99.6	82.4
50	92.9	75.8
51	105.1	94.0
52	93.5	89.7
53	.	.
54	78.4	94.4
55	98.3	96.6
56	98.5	96.3
57	104.4	83.5
58	110.9	93.1
59	104.5	91.1
60	48.2*	80.4*

Following part:
cpd	mol	GIV Gai3 FP	HCMV NEC inh
61	COc1ccc(C(=O)Nc2ccc3[nH]ccc3c2)cc1	104.4	-25.3
62	O=C(O)c1cc(C2CC2)[nH]n1	103.0	2.5
63	CCn1c(=O)c2cc(C(=O)NCCc3ccsc3)sc2c2ccccc21	100.2	.
64	Cc1ccc(-c2cc3nccc(-c4ccccc4O)n3n2)cc1	97.7	-26.8
65	O=C(NCCCN1CCOCC1)c1cc(-c2ccc(O)cc2)on1	96.9	-9.6
66	CCCCn1c(CNC=O)nc2ccccc21	105.1	-13.2
67	CN1CCN(c2ccc(NS(=O)(=O)c3ccc(Br)cc3)c(C(=O)O)c2)CC1	104.6	-10.1
68	COc1ccccc1N1CCN(C(=O)CN2C(=O)CCCc3ccccc32)CC1	105.3	1.5
69	Cc1ccc(N2C(=O)c3[nH]nc(-c4ccc(Cl)cc4)c3C2c2ccc(F)cc2)cc1 (stereo not given)	99.3	-20.4
70	COc1ccccc1CNC(=O)c1ccc2nc(CCc3ccccc3)oc2c1	98.6	.
71	CCOc1ccc(S(=O)(=O)N(C)c2ccc(OCC(=O)NCC3CCCO3)cc2)cc1 (stereo not given)	.	-18.3
72	O=S(=O)(Nc1ccc(C(F)(F)F)cc1)c1cnc[nH]1	102.4	-19.1

cpd	Sa growth inh	Sa growth inh second temp
61	91.4	81.2
62	106.5	106.5
63	111.0	96.1
64	.	.
65	105.0	85.5
66	110.1	105.7
67	.	.
68	.	.
69	102.6	81.3
70	86.8	91.6
71	96.7	84.0
72	103.5	85.9

7 records picked at random from the list so far, as already listed:
cpd	mol	GIV Gai3 FP	HCMV NEC inh
43	Cc1cccc(N)c1-c1c(C)cccc1N	105.2	-7.9
29	Cc1ccc(S(=O)(=O)c2ccc(N3CCC(C(=O)OCc4ccccc4)CC3)nn2)cc1	102.9	-38.6
58	Cc1nc2c(=O)oc3ccccc3c2o1	103.9	-2.6
27	CCOc1ccc(-n2c(=O)c3c4c(sc3n(CC(=O)N3CCC(C)CC3)c2=O)CCC4)cc1	103.8	-31.8
53	COC(=O)c1c(NC(=O)c2csnn2)sc2c1CCCC2	101.3	-17.1
30	COc1ccc(-c2nc3ccccc3n2Cc2ccccc2)cc1	105.8	-19.5
51	CCN(C(=O)CSc1nc2ccccc2n1Cc1cc(C)ccc1C)c1ccccc1	105.0	.

cpd	Sa growth inh	Sa growth inh second temp
43	121.1	95.8
29	.	.
58	110.9	93.1
27	.	.
53	.	.
30	118.5	90.4
51	105.1	94.0

Next part.
cpd	mol	GIV Gai3 FP	HCMV NEC inh
73	O=C1C(Oc2ccccc2)C(c2cccs2)N1Cc1ccc2c(c1)OCO2 (stereo not given)	96.0	-2.7
74	O=C(Oc1cccc(-n2cnnn2)c1)c1ccc(Br)cc1	101.0	4.6
75	CCC1Cn2c(C(=O)NC3CC3)cc3c(Cl)ccc(c32)O1 (stereo not given)	105.0	-10.8
76	O=C(NCc1cccs1)c1cc(-c2ccccc2)nc2ccccc12	105.5	.
77	Cc1nnc(C)n1/N=C\c1cccc(OCc2ccccc2)c1	107.0	.
78	O=C(Nc1ccccc1)OC1CCCCc2cccnc21 (stereo not given)	105.1	-3.6
79	CCOCCCNC(=O)c1cc(Sc2cccc(Cl)c2)nc2ccccc12	101.2	.
80	O=C(c1ccc(F)cc1)c1cn(Cc2ccccc2F)c2cc3c(cc2c1=O)OCCO3	95.1	-31.7
81	O=S(=O)(Cc1ccc(Cl)cc1)Nc1ccc2c(c1)OCCO2	104.7	-1.0
82	CN1CCN(C(=O)C(Cc2ccccc2)NC(=O)c2ccccc2NC(=O)c2ccccc2)CC1 (stereo not given)	98.9	-12.4
83	C#CCn1nnc2ccccc21	99.4	-43.2
84	COc1ccc(N2C(=O)C(O)=CC2(OC)c2ccccc2)cc1 (stereo not given)	.	-15.8

cpd	Sa growth inh	Sa growth inh second temp
73	101.7	92.6
74	.	.
75	.	.
76	112.0	67.5
77	99.0	88.4
78	99.4	86.0
79	112.5	88.9
80	91.2	88.6
81	122.8	97.8
82	.	.
83	91.4	86.7
84	?	.

Following part:
cpd	mol	GIV Gai3 FP	HCMV NEC inh
85	CC(C#N)(Cc1ccccc1)Nc1ccc(Cl)cc1 (stereo not given)	102.8	2.3
86	CCOC(=O)c1c(NC(=O)COc2c(F)c(F)cc(F)c2F)sc(C(=O)N(CC)CC)c1C	110.3	-1.1
87	COC(=O)CCC1(C(=O)O)CCOC(C)(C)C1 (stereo not given)	99.4	-18.4
88	CN(C)c1nc(C(=O)OCCO)nc(N(C)C)n1	99.4	-4.2
89	Cc1nnc(N2CCC(C(=O)NCCc3ccccc3)CC2)c2nn(-c3ccccc3)c(C)c12	104.5	.
90	Cc1ccc(O)c(-c2cc(-c3ccc(C(C)(C)C)cc3)n[nH]2)c1	.	2.4

cpd	Sa growth inh	Sa growth inh second temp
85	108.3	95.1
86	.	.
87	106.9	96.6
88	87.5	88.5
89	103.3	96.6
90	60.2	59.2
